Autofluor counter – flagged as autofluorescent in microsphere protease counterscreen; compound autofluorescence counterscreen, microsphere flow cytometry; stronger effect = higher value; fluorescence intensity (concentration not given with the values); 360,000 compounds, 3.1% hits;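 active = at least 3 SD above the mean of all compounds, about 16000 in these data; inconclusive = too few beads counted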;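 also: 100 nL of 1 mM stock went into each well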
Sa ugtP lethal – growth inhibition of S. aureus ugtP deletion strain | S. aureus RN4220 ugtP deletion, OD600 growth, 16 h; some inactives read as strong as hits | growth inhibition, % (no concentration beside the values) | 330,000 compounds, 0.54% hits;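 active = z-score under -3 and OD600 up to 0.15 on both plates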;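 also: plate controls were untreated wells for no effect and antibiotic for full effect; wells of about 80 µL received 100 nL stock; the first replicate is given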
PrP UTR inh – suppresses PrP 5' UTR mRNA reporter expression. cell-based PrP 5' UTR mRNA reporter, plate reader. inhibition, % (test concentration not listed). 340,000 compounds, 0.35% hits. AID 488862;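 active = every replicate at 50% or more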;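 also: 0 = median of the neutral control wells; tested in H4 reporter cells; numbers are from one replicate; inactives centre near -14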
BJeLR lethal – BJeLR cell viability loss; BJeLR (HRASV12) viability, CellTiter-Glo ATP luminescence, 48 h; reference of the scale not given here; inhibition, % (test concentration not listed); 300,000 compounds, 0.17% hits;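 active = replicate mean above 50%; inconclusive = above 50% but judged a plate artefact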;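 also: 50 nL library stock added to about 25 µL; numbers are from one replicate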
Sa RN4220 lethal – S. aureus RN4220 growth inhibition; inhibition, % (test concentration not listed); AID 1259311; OD600, 16 h; 330,000 compounds, 0.33% hits;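 active = z-score of -3 or lower and OD600 up to 0.18 on both plates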;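 also: plate controls were untreated cells for no effect and reference antibiotic for full effect; stock transfer was 100 nL into about 80 µL; one replicate is shown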
Mtb hypoxia rep – inhibitors of hypoxia-regulated fluorescent reporter in Mycobacterium tuberculosis. 300,000 compounds, 0.1% hits. M. tuberculosis hypoxia-regulated fluorescent reporter, fluorescence. fluorescence inhibition, % (no concentration beside the values). AID 1159583;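 active = 35 to 45% if threefold the growth effect, above 45% if 1.5-fold the growth effect; inactive = the rest, general growth blockers included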;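 also: wells of about 50 µL received 100 nL stock; 0% = vehicle wells and 100% = reference inhibitor wells; whole bacteria with a GFP reporter of the hypoxia response; strong numbers were not always called active; many hits fall short of the cut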
Mtb hypoxia rep growth – also measured in Mtb hypoxia rep; calls as there; growth inhibition, %; measured here: M. tuberculosis growth (absorbance);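 0% = vehicle and 100% = reference antibiotic; read after six days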
* hit, by the source's call; ? = inconclusive; / = no result given.

Results follow in this order: Autofluor counter	Sa ugtP lethal	PrP UTR inh	BJeLR lethal	Sa RN4220 lethal	Mtb hypoxia rep	Mtb hypoxia rep growth
(1) O=C(NNC(=O)c1ccccc1F)c1cccc(S(=O)(=O)N2CCc3ccccc32)c1
 : 4317	11	-20	/	12	2	-1
(2) O=C1CC(Sc2nnc(-c3ccccc3O)o2)C(=O)N1c1ccccc1 (configuration not stated)
 : 7520	-4	-16	5	12	-4	-4
(3) CCC1CCCCN1CCCNC(=O)C1CCN(Cc2nc(-c3ccc(Cl)cc3)oc2C)CC1 (configuration not stated)
 : 5122	-2	-13	3	4.9	-1	-2
(4) Cc1cc(N)n(-c2ccc(S(=O)(=O)N3CCOCC3)cc2[N+](=O)[O-])n1
 : 4636	-2	-11	2	2.6	-2	2
(5) COc1c2c(cc3oc(=O)ccc13)OC(C)(C)C=C2
 : 4116	2	-27	-1	0.3	/	/
(6) Cc1ccc(N(CC(=O)NCCSc2ccccn2)S(C)(=O)=O)cc1
 : 6412	15	-21	-3	6.1	7	4
(7) O=C(CSC1=NS(=O)(=O)c2ccccc2N1)NCc1ccc(F)cc1
 : ?	3	-24	2	0.5	-1	0
(8) O=C(Nc1nc(-c2ccccc2)cs1)c1cccnc1
 : 8118	-2	-33	3	4.6	5	-2
(9) NS(=O)(=O)OCc1ccc(C(F)(F)F)cc1
 : 4337	1	-4	2	11	0	9
(10) O=C(NC(=S)NCC1CCCO1)c1ccccc1[N+](=O)[O-] (configuration not stated)
 : 3671	5	-24	-11	4.6	7	-4
(11) Cc1ccc(C(=O)Oc2ccc(C(=O)COC(=O)C3CC(=O)N(Cc4ccco4)C3)cc2)cc1 (configuration not stated)
 : 6632	-17	-30	-8	-2.9	-3	-11
(12) Cc1cc(C(=O)NN=C(CCC(=O)O)c2cccs2)c2ccccc2n1
 : /	2	/	/	4.9	9	7
(13) O=C(CSCc1ccc([N+](=O)[O-])cc1)NN=C1CCCCCC1
 : 9229	-3	-13	3	-2.3	-8	2
(14) O=C(Nc1cc(-c2nc3ncccc3o2)ccc1Cl)c1ccc2c(c1)OCO2
 : 5275	-12	-41	/	2.0	0	-3
(15) O=C(NCCc1ccc(Cl)cc1)c1ccc(CS(=O)Cc2ccccc2Cl)o1 (configuration not stated)
 : 6249	8	-26	10	6.1	6	5
(16) O=C(O)c1ccc(CNS(=O)(=O)c2ccc(Oc3ccccc3Cl)cc2)cc1
 : 3292	-7	-14	-7	0.6	0	6
(17) Cc1[nH]c2ccc(F)cc2c1CCNC(=O)C1CCCCC1C(=O)OCC(F)(F)F (configuration not stated)
 : 7697	/	-10	-17	/	/	/
(18) COC(=O)N/N=C/c1cc(C)n(-c2ccc(F)cc2)c1C
 : 4668	/	-30	-19	/	/	/
(19) Cc1cc(C)n(C2CC(=O)N(c3cccc(Cl)c3)C2=O)n1 (configuration not stated)
 : 4630	5	-21	-5	5.1	0	5
(20) Cc1noc(C)c1S(=O)(=O)N(C)C[C@H]1Oc2ccc(NS(=O)(=O)c3ccccc3)cc2C(=O)N([C@H](C)CO)C[C@@H]1C
 : 2888	8	-5	/	-0.4	6	1
(21) CCSC1=N/C(=C\c2cccc(F)c2)C(=O)S1
 : 10635	4	-35	3	9.6	-2	-1
(22) Cc1ccc2c(COC(=O)CNC(=O)c3ccccc3)cc(=O)oc2c1
 : 8667	12	-26	-8	3.6	7	7
(23) O=C(Nc1ccc(Cl)cn1)c1cccc(S(=O)(=O)N2CCOCC2)c1
 : 20815*	-6	4	1	-0.6	-7	-2
(24) CCN(C(=O)CSc1nnc(-c2ccc(OC(F)F)cc2)n1N)C1CCS(=O)(=O)C1 (configuration not stated)
 : 4373	-2	-23	12	-1.4	-4	-4
(25) CCc1ccc(CCC(=O)Nc2ccccc2C(=O)O)o1
 : 11153	1	-45	-9	1.9	3	-1
(26) CC(Oc1ccc(Cl)cc1Cl)C(=O)NC1=NN(c2ccccc2)C(=O)C1 (configuration not stated)
 : 2651	17	-15	-10	31	/	/
(27) CC(C)COP(=O)(OCC(C)C)C(O)c1ccc2c(c1)OCO2 (configuration not stated)
 : 4283	17	-11	1	4.5	-2	-7
(28) COc1ccccc1OCCOCCOc1ccccc1Cl
 : 2564	9	-6	7	9.6	12	3
(29) CCOc1cc(C(C(=O)NCC2CCCO2)N(C(=O)Cn2nnc3ccccc32)c2ccc(NC(C)=O)cc2)ccc1O (configuration not stated)
 : 5917	1	-21	7	2.8	-13	2
(30) Cc1ccc2nc(C(F)OC(F)(F)F)[nH]c2c1 (configuration not stated)
 : 17272*	-1	-15	2	3.3	-2	-2
(31) O=C(Nc1cccnc1)/C(N=Nc1ccc(Cl)c(C(F)(F)F)c1)=C(\O)c1ccccc1
 : 2614	-2	14	4	5.7	2	0
(32) CN(C)c1nc(C(=O)O)nc(N2CCOCC2)n1
 : 5198	1	-35	-6	4.4	17	3
(33) O=C1CSC(=NN=Cc2cccs2)N1Cc1ccc(F)cc1
 : /	3	/	/	2.6	1	5
(34) O=C(NCCNC(=O)c1cnccn1)c1ccc(Cl)c(Cl)c1
 : 3859	2	-26	-3	1.9	-2	-8
(35) CCOc1ccccc1NC(=O)NCc1ccc2c(c1)OCO2
 : /	-8	-11	9	-2.5	0	-2
(36) Cc1ccc(S(=O)(=O)N2CCOCC2)cc1C(=O)NCc1cn2ccsc2n1
 : 2084	-2	7	0	-0.5	/	/
(37) Cc1cc2ncn(N=Cc3ccc([N+](=O)[O-])s3)c2cc1C
 : /	-2	/	/	5.1	8	0
(38) Cc1oc2c(c(C)cc3oc(=O)c(CC(=O)N[C@@H](CC(C)C)C(=O)O)c(C)c32)c1C
 : 3136	3	-10	-2	4.0	9	0
(39) COC(=O)CC1C(=O)NCCN1C(=S)Nc1ccccc1Cl (configuration not stated)
 : 4556	0	-15	-5	10	6	16
(40) CC(C)CC(NC(=O)C(CO)NC(=O)C1CCC(=O)N1)C(N)=O (configuration not stated)
 : 2493	13	-16	-2	1.3	-1	3
(41) CCC(=Cc1ccccc1)c1cccc2[nH]c3c(OC)cccc3c12
 : /	97*	/	/	39	6	8
(42) COc1c(F)c(F)c(C(=O)Nc2ccc3oc(-c4ccncc4)nc3c2)c(F)c1F
 : 4637	-3	-36	3	-0.1	/	/
(43) CC(=O)NCCOC(=O)Nc1cccnc1
 : 5709	2	-17	0	0.2	6	14
(44) O=C(Cc1ccccc1[N+](=O)[O-])Nc1ccc(S(=O)(=O)N2CCCC2)cc1
 : ?	/	-34	3	/	/	/
(45) CCn1c(SCC(=O)NCc2ccco2)nc2c(c1=O)SC(C)C2 (configuration not stated)
 : 4837	2	-19	-4	0.2	/	/

Single records (already shown). Order of screens: Autofluor counter | Sa ugtP lethal | PrP UTR inh | BJeLR lethal | Sa RN4220 lethal | Mtb hypoxia rep | Mtb hypoxia rep growth
Profile of COc1c(F)c(F)c(C(=O)Nc2ccc3oc(-c4ccncc4)nc3c2)c(F)c1F : 4637 | -3 | -36 | 3 | -0.1 | / | /
Profile of O=C1CSC(=NN=Cc2cccs2)N1Cc1ccc(F)cc1 : / | 3 | / | / | 2.6 | 1 | 5
Profile of CCOc1ccccc1NC(=O)NCc1ccc2c(c1)OCO2 : / | -8 | -11 | 9 | -2.5 | 0 | -2

(cont.)
Results follow in this order: Autofluor counter	Sa ugtP lethal	PrP UTR inh	BJeLR lethal	Sa RN4220 lethal	Mtb hypoxia rep	Mtb hypoxia rep growth
(46) COc1cc(NC(=S)NCc2cccs2)cc(OC)c1
 : 2122	2	-29	-2	4.7	-3	4
(47) Cc1ccc(S(=O)(=O)N2CCN(CC(=O)NN=Cc3ccc(C)o3)CC2)cc1
 : /	0	/	/	1.5	-1	6
(48) CCC(C)/C=C/C1=CC2=C(Cl)C(=O)C3(C)OC(=O)C(C(=O)C(C)C(C)O)C3C2=CO1 (configuration not stated)
 : 5794	3	-7	-4	8.6	/	/
(49) CCOC(=O)c1sc2nccc(N(C)C)c2c1N=CNOCc1c(F)cccc1Cl
 : 2182	-6	-5	-3	0.7	/	/
(50) COc1ccc(CC2=C(O)c3ccccc3C(=O)C2=O)cc1
 : 3441	-3	-22	-6	25	14	28
(51) O=C(CCc1nnc(C2CCCCC2)o1)N1CCN(Cc2ccccc2)CC1
 : 4727	3	-31	4	8.1	11	6
(52) CC(NCc1ccco1)C(=O)N1CCc2ccccc2C1 (configuration not stated)
 : 8048	5	-26	1	4.3	15	3
(53) C#CCOc1ccccc1/C=N/NC(=O)c1ccccc1OCc1ccccc1
 : 5163	/	-12	-6	/	/	/
(54) CN(C(=O)c1ccc(NC(=O)Cc2ccc(NC(=O)C3CCN(C(=O)C4CCCCC4)CC3)cc2)cc1)C1CC1
 : 2044	3	-15	/	4.0	9	7
(55) CC(C)C[C@H](NC(=O)OC(C)(C)C)c1n[nH]c(=S)n1N
 : 2086	6	-9	-9	7.1	0	0
(56) CCOc1ccccc1NC(=O)CN(c1nccs1)S(=O)(=O)c1ccc(N)cc1
 : 3458	-2	-11	3	1.1	/	/
(57) COc1ccc(-n2cnc3ccccc3c2=O)c([N+](=O)[O-])c1
 : 5227	4	-18	2	2.7	-2	-2
(58) CC1(c2ccccc2)NC(=O)N(CC(=O)Nc2nc(-c3ccccn3)cs2)C1=O (configuration not stated)
 : 3793	4	-5	-11	1.0	5	0
(59) Cc1ccccc1-c1noc(CCC(=O)NCC2CCCO2)n1 (configuration not stated)
 : 22713*	4	-13	-2	4.4	1	-2
(60) O=C(Cc1cccs1)Nc1cccc(-c2nc3ccccc3[nH]2)c1
 : 10401	4	-19	2	8.3	7	1
(61) CC(C)c1ccc2[nH]c(O)c(N=NC(=O)c3ccc(CSc4nncn4C)cc3)c2c1
 : 1963	6	-22	8	8.8	-4	5
(62) COc1ccccc1CN(C)C(=O)c1ccc(COc2ccccc2)cc1
 : 3549	/	-16	-15	/	/	/
(63) COc1ccccc1CCNC(=O)C(=O)NCC1OCCN1S(=O)(=O)c1ccc(Br)cc1 (configuration not stated)
 : 2332	3	-20	-7	2.5	2	9
(64) Nc1nc(SCc2ccc3c(c2)OCCO3)n[nH]1
 : 2839	-1	-6	0	1.5	/	/
(65) CC(C)Oc1cc(NC(=O)CS(=O)CC(=O)Nc2cccc(C(F)(F)F)c2)c(Cl)cc1Cl (configuration not stated)
 : 5963	-40	-11	10	-2.4	0	-2
(66) COc1cc2cc(C)c(SCC(=O)N3CCOCC3)nc2cc1OC
 : 8193	10	-14	8	3.6	-9	-11
(67) CCOC(=O)c1sc2ccc(S(=O)(=O)N3CCOCC3)cc2c1N
 : 8182	0	-26	1	3.6	-3	-4
(68) CC(C)N1CCC(N2CCN(CC#Cc3ccccc3)CC2CCO)CC1 (configuration not stated)
 : 3926	0	-6	5	1.0	4	1
(69) O=C(OC1CCOC1=O)c1cc(-c2ccc(Br)cc2)nc2ccccc12 (configuration not stated)
 : 15891	8	4	4	1.2	5	-4
(70) CCCc1cc(=O)[nH]c(SCc2cc(Cl)ccc2OC(F)F)n1
 : 24635*	-36	-19	1	8.1	-6	9
(71) O=C(NNC(=S)NC(=O)c1cccc([N+](=O)[O-])c1)c1ccc(Br)cc1
 : 3195	1	13	1	33	-1	1
(72) NS(=O)(=O)c1ccc(NC(=O)/C=C/c2ccc3c(c2)OCO3)cc1
 : 2233	-3	-9	-1	4.5	10	0
(73) CC(CN1CCOCC1)OC(=O)C(c1ccccc1)c1ccccc1 (configuration not stated)
 : 4492	1	0	7	3.5	/	/
